# VDR inhibitor: blocks the human vitamin D receptor; VDR-SRC2-3 peptide fluorescence polarization, 2 h; AID 504847; 400,000 tested, 0.93% active; P11473; Potency, µM, for the others: max response, negative = inhibition, most hits filed as inhibitors; active means well fitted inhibition curve with a large enough effect; inconclusive means small, poorly fitted or top-dose-only effect, or another doubt; inactive means no such curve, though single readings can be large or run the other way; further: series mostly up to about 120 µM
# Target sequence (P11473 whole entry, looked up): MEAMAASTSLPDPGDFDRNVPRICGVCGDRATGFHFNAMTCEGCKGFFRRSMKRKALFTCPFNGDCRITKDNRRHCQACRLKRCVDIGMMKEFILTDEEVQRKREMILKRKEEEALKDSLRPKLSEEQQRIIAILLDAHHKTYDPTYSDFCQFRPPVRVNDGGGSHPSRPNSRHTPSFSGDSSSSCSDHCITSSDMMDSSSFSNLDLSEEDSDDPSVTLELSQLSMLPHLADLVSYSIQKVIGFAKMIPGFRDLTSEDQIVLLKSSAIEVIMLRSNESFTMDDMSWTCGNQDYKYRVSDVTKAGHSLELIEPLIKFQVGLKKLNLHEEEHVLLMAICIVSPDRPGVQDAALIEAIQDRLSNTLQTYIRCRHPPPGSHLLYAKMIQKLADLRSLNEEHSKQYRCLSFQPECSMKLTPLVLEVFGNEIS
#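 Signal is fluorescence polarization, reporting how far test compounds block the interaction of VDR with the SRC2-3 coregulator peptide after a 2 h room-temperature incubation.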
# * hit, by the source's call; ? = inconclusive; & = joins results of further samples. On the % scale 0 is the no-effect control and ±100 the full control effect; potency means the concentration at half of the fitted maximal effect. A portion of the library, so the mix of outcomes need not match the whole.
no.	Structure	VDR inhibitor
1	CCn1cc(/C=C(\NC(=O)c2cc(OC)c(OC)c(OC)c2)C(=O)NCCCn2ccnc2)c2ccccc21	4%
2	CN(C(=O)COC(=O)CCc1nc2ccccc2c(=O)[nH]1)C1CCS(=O)(=O)C1 (stereo unspecified)	1%
3	CC(=O)c1cccc(S(=O)(=O)N2CCCC(c3nc4c(nnn4Cc4ccc(C)cc4)c(=O)[nH]3)C2)c1 (stereo unspecified)	10%
4	CN(C)c1ccc(N=Nc2ccc3ncccc3c2)cc1	-2%
5	CCc1ccc2oc(-c3ccc(NC(C)=O)cc3)nc2c1	12%
6	CC1CCN(C(=O)C2CCN(c3nnc(-n4cccc4)s3)CC2)CC1	-2%
7	COc1cccc(NC(=O)CN(C)C(=O)c2c(C)noc2C)c1	-8%
8	COc1cccc(NC(=O)N2CCN(c3ccc(C(F)(F)F)cn3)CC2)c1	16%
9	CC(=O)c1c(C)[nH]c(C(=O)COC(=O)CNS(=O)(=O)c2ccccc2)c1C	-8%
10	Nc1nnc(CC(=O)N/N=C/c2cc([N+](=O)[O-])cc(Br)c2O)s1	?
11	O=S(=O)(NCc1nc2ccccc2[nH]1)c1ccccc1	-21%
12	CCCCc1c(O)nc(SCC(=O)NCC2CCCO2)[nH]c1=O (stereo unspecified)	10%
13	S=C(Nc1ccc(Br)cc1)N1CCN(c2ccccn2)CC1	14%
14	CN(CCCC(=O)Nc1ccncc1)S(=O)(=O)c1ccc(Cl)cc1	-6%
15	CCOC(=O)c1ccccc1NC(=O)CN1C(=O)CC(c2ccco2)Sc2ccccc21 (stereo unspecified)	5%
16	COCCOC(=O)C1=C(C)NC(=O)NC1c1cc2c(cc1Br)OCO2 (stereo unspecified)	0%
17	c1ccc(CCN(Cc2ccccc2)Cc2nc(C3CC3)no2)cc1	?
18	CCOc1ccc(C)cc1S(=O)(=O)NC1CCCCC1	-14%
19	O=C1N(Cc2cccnc2)C[C@@H]2C[C@@H](c3cccc(OCc4ccccc4)c3)N3CCC[C@@]123	3%
20	O=C(NC(=S)Nc1ccc2[nH]c(=O)[nH]c2c1)c1cncc(Br)c1	-3%
21	COC(=O)c1ccc(C(=O)OC)c(NC(=O)CCS(=O)(=O)Cc2ccccc2)c1	-15%
22	c1ccc2c(N3CCNCC3)nc(-c3ccoc3)nc2c1	?
23	Cc1cccc(C(=O)Nc2ccc(-c3nc4cc(C(C)C)ccc4o3)cc2)c1	2%
24	Cc1cccc(C(=O)Nc2ccc(N3CCN(C(=O)c4ccco4)CC3)cc2)c1	6%

# Reprinted from the part before: three compounds, followed by the next part.
no.	Structure	VDR inhibitor
22	c1ccc2c(N3CCNCC3)nc(-c3ccoc3)nc2c1	?
23	Cc1cccc(C(=O)Nc2ccc(-c3nc4cc(C(C)C)ccc4o3)cc2)c1	2%
24	Cc1cccc(C(=O)Nc2ccc(N3CCN(C(=O)c4ccco4)CC3)cc2)c1	6%
25	COC(=O)c1cc(-c2ccc(S(=O)(=O)N3CCCC3)cc2)c(C(F)(F)F)s1	5%
26	O=C(NCc1cccs1)c1ccc2c(c1)N(Cc1ccccc1Cl)C(=O)c1ccccc1S2	8%
27	Cc1ccc(C(=O)NC(=O)CSc2nncn2C)cc1	-1%
28	CC(=O)c1c(C)[nH]c(C(=O)OCn2nnc3ccccc3c2=O)c1C	-9%
29	Cc1cccc(-c2nc3scc(CCNS(=O)(=O)c4c(C)noc4C)n3n2)c1	20%
30	c1ccc(CN2CCC(Nc3ncnc4sccc34)CC2)cc1	-5%
31	C=CCn1c(SCC(=O)NCCCC)nc2scc(-c3ccco3)c2c1=O	?
32	CCCCN(C(=O)c1cccc(N2C(=O)c3ccccc3C2=O)c1)c1c(N)n(CC(C)C)c(=O)[nH]c1=O	-5%
33	Cc1cccc(Cn2cc3c(=O)n(CC(=O)Nc4c(C)cccc4C)nc-3c3cc(F)ccc32)c1	6%
34	O=C(NCCCN1CCOCC1)c1ccc2nc(Cc3ccccc3F)oc2c1	-11%
35	COC(=O)c1sccc1NC(=O)Nc1cccc(C)c1C	-11%
36	Cc1ccc(NC(=O)C(=O)NCC(c2cccnc2)N2CCc3ccccc3C2)cc1 (stereo unspecified)	6%
37	CC(C)C(=O)N1CCN(c2nc(-c3ccc(Cl)cc3)cs2)CC1	6%
38	Cc1ccc(C)c(SCC(=O)OCC(=O)N2CC(C)OC(C)C2)c1 (stereo unspecified)	-6%
39	Cc1ccc(Nc2sc(C(=O)c3ccccc3)c(N)c2S(=O)(=O)c2ccccc2)cc1Cl	7%
40	O=C(O)[C@@H]1CCCN(S(=O)(=O)c2cccc3cccnc23)C1	4%
41	CC(=O)c1c(O)cc(O)cc1CC(=O)O	-16%
42	Cn1c(=O)n(CC(=O)NCc2cccnc2)c2ccccc21	2%
43	O=C1CC(SC(=NCc2ccc3c(c2)OCO3)Nc2ccccc2)C(=O)N1c1ccccc1 (stereo unspecified)	3%
44	CN(C)Cc1ccccc1-c1nc(N2CCOCC2)c2ccccc2n1	5%
45	Cc1ccc(C(=O)N/C(=C\c2ccc(F)cc2)C(=O)NCCN2CCOCC2)cc1	-8%
46	Cc1ccccc1NC(=O)c1ccccc1O	8%
47	CC(C)(C)c1ccc(-c2nc(C#N)c(NCc3ccncc3)o2)cc1	13%
48	O=C(COC(=O)c1ccc2ncsc2c1)NCc1cccc(Cl)c1	1%
49	O=C(CSc1nc2cc(S(=O)(=O)N3CCOCC3)ccc2o1)Nc1c(F)cccc1F	18µM*
50	COc1ccc(N(CC(=O)Nc2ccc3c(c2)OCO3)S(=O)(=O)c2ccc(C)cc2)cc1OC	-15%
51	COC(=O)N1C(C)=Cc2ccccc2C1C/C(C)=C/C(C)=O (stereo unspecified)	14%
52	Cn1c(=O)c2c(nc(SCC(=O)NCc3ccco3)n2C)n(C)c1=O	8%
53	O=C(O)c1cccc(NS(=O)(=O)c2ccc3nnn(O)c3c2)c1	11%
54	CCOc1ccc(CN(C)C(=O)CCc2ccc(S(=O)(=O)N3CCCCCC3)cc2)cc1	7%
55	O=C(c1ccc(S(=O)(=O)NCc2ccco2)cc1)N1CCCC1	2%
56	Cc1cc(C)c2cc(CN(CCO)Cc3nnnn3Cc3ccc(F)cc3)c(=O)[nH]c2c1	-25%

# Quoted at random: four compounds from above, in no set order.
no.	Structure	VDR inhibitor
1	CCn1cc(/C=C(\NC(=O)c2cc(OC)c(OC)c(OC)c2)C(=O)NCCCn2ccnc2)c2ccccc21	4%
7	COc1cccc(NC(=O)CN(C)C(=O)c2c(C)noc2C)c1	-8%
37	CC(C)C(=O)N1CCN(c2nc(-c3ccc(Cl)cc3)cs2)CC1	6%
8	COc1cccc(NC(=O)N2CCN(c3ccc(C(F)(F)F)cn3)CC2)c1	16%

# Next section.
no.	Structure	VDR inhibitor
57	CN(CC(=O)Nc1ccc(C#N)cc1)Cc1ccc(Cl)cc1	11%
58	CCCC(=O)c1c[nH]c(C(=O)NCCCN2CCOCC2)c1	10%
59	CC1(C)CC(=O)C2=C(C1)OC(=O)C2(NC(=O)c1cccs1)C(F)(F)F (stereo unspecified)	-7%
60	CC(=O)Nc1ccc(/C(C)=N/NC(=O)c2ccncc2)cc1	6%
61	Cc1ccc(N2C(=S)N=C(Nc3ccccc3C)C23CCOC(C)(C)C3)cc1 (stereo unspecified)	16%
62	COc1ccc(N2CCN(C(=O)/C(C#N)=C/c3ccccc3)CC2)cc1	?
63	CCc1cccc(NC(=O)CCn2c(=O)c3cccn3c3cccnc32)c1	-6%
64	COc1ccc(NC(=O)CN(C)C(=O)c2ccc(N3CCCC3)c([N+](=O)[O-])c2)cc1	-2%
65	COc1ccc2nc(C)cc(SCC(=O)N/N=C/c3ccco3)c2c1	4%
66	COc1ccc2nc(N3C(=O)/C(=C/c4ccccc4)NC3=S)sc2c1	-10%
67	O=CN(c1ccccc1)c1ccc2ccccc2c1	-6%
68	CCOc1ccccc1CN1CCNC(=O)C1CC(=O)N(C)CCC1CCOCC1 (stereo unspecified)	-12%
69	O=C1C=C(c2ccc(F)cc2OCc2ccccc2)C[C@@H](c2ccc3c(c2)OCO3)C1	-13%
70	Cc1ccc(NC(=O)CSc2nnc(NC(=O)NC3CCCCC3)s2)cc1	-7%
71	COc1ccc(C(=O)N2CCCC(C(=O)N3CCCCCC3)C2)cc1 (stereo unspecified)	-18%
72	CN(C)C(=O)COc1ccc(Oc2ccccc2)cc1	10%
73	Cc1ccc(S(=O)(=O)NCCC(=O)OCC(=O)N(C)c2ccccc2)cc1	-10%
74	COc1ccc(S(=O)(=O)N(Cc2ccccc2)c2ccccc2C(=O)O)cc1	-4%
75	O=C(COC(=O)CNC(=O)c1ccc(Cl)cc1Cl)NNC(=O)c1ccccc1F	-7%
76	CCc1ccccc1NC(=O)c1nnn(CC(=O)Nc2cccc(C)c2C)c1N	-7%
77	Cc1cc(NC(=O)COC(=O)c2cccc(S(=O)(=O)N3CCOCC3)c2)no1	7%
78	CCOc1ccc(NC(=O)CN(C)C(=O)c2ccc(C)c(S(=O)(=O)N3CCCCC3)c2)cc1OCC	14%
79	CCN1CCN(C(=O)C2CCN(S(=O)(=O)N3CCC4(CC3)OCCO4)CC2)CC1	-9%
80	CCC(C)N(C(=O)CSc1ncnc2sccc12)C1CCS(=O)(=O)C1 (stereo unspecified)	12%
81	COC(=O)C1=CO[C@@H](C)[C@H]2CN3CCc4c([nH]c5ccccc45)[C@@H]3C[C@H]12	3%&-1%&4%
82	COc1cc(NC(=O)CSc2ncnc3c2cnn3Cc2ccccc2)cc(OC)c1	-1%
83	Cc1ccc(C(=O)NCC(=O)OCC(=O)Nc2ncc(C(F)(F)F)cc2Cl)cc1	13%
84	C/C=C/CSc1nc2c(c(=O)[nH]c(=O)n2C)n1C(C)C	2%
85	O=C(Cc1ccsc1)Nc1ccccc1F	?
86	Cc1cc(C)nc(NC(=O)CN2C(=O)c3ccccc3S2(=O)=O)n1	-13%
87	O=C(Nc1ccc(S(=O)(=O)N2CCCCC2)cc1)c1ccncc1	10%
88	COc1ccccc1NC(=O)CSc1nnc(-c2ccccc2C)o1	-3%
89	COc1cc(OC)cc(C(=O)Nc2ccc(-c3nc4ccccc4s3)c(C)c2)c1	14%
90	CCCc1nc(N)c(C#N)c(-c2cccnc2)c1CC	-7%
91	Nc1nc(N)n(-c2ccccc2)c(=Nc2ccccc2)n1	-1%
92	O=C(NC1CCCC1)C(c1ccncc1)N(C(=O)c1csnn1)c1ccccc1 (stereo unspecified)	7%
93	Cc1cccc(NS(=O)(=O)c2c(C(=O)N3CCCC3)c(C)n(C)c2C)c1	-11%
94	N#Cc1ccsc1NC(=O)CN1CCOCC1	10%
95	Fc1cccc(/C=N/Nc2nccnc2Cl)c1	-12%
96	COc1ccc(/C=N/Nc2nc(Nc3ccccc3)nc(N3CCCC3)n2)cc1	-18%
97	CSc1ccc(C(=O)c2[nH]c(=O)[nH]c2C)cc1	?
98	COc1ccccc1C(=O)NCCC(=O)NNC(=O)Cn1ccc(C(F)(F)F)n1	9%
99	CCOc1ccc(Cn2nnc(C(=O)Nc3ccc(Cl)cc3)c2N)cc1	-9%
100	COc1ccccc1N(CN1C(=O)c2ccccc2C1=O)C(=O)c1cccc(C)c1	-10%
101	CC1CN(c2nc3ccccc3nc2NS(=O)(=O)c2ccccc2)CC(C)O1 (stereo unspecified)	23%
102	CCOC(=O)C1(CCc2ccccc2)CCN(Cc2ccccn2)CC1	4%
103	Cc1ccc(NC(=O)c2cc(S(=O)(=O)N3CCCCC3)c[nH]2)cc1N(C)C	15%
104	COc1ccc(OCC(=O)Nc2cc(-c3cccc(Cl)c3)nn2-c2ccccc2)cc1	17%
105	COc1cc(NC(=O)CN2C(=O)CSc3ccc(S(=O)(=O)N4CCCC4)cc32)cc(OC)c1	11%
106	CCc1nnc2sc(-c3ccc(NC(=O)CSc4ccc(Cl)cc4)cc3)nn12	-7%
107	O=C(c1cccc(F)c1)N1CCC2(CC1)CN(c1ccccn1)C2	-16%
108	Cc1cccc(OCC(=O)Nc2ccc3oc(-c4ccccc4F)nc3c2)c1	-3%
109	COc1ccc(NC(=O)CN(C)S(=O)(=O)c2ccc(Cl)cc2)cc1Cl	9%
110	CCCNC(=O)C(Cc1ccc(I)cc1)NC(=O)C1CC1 (stereo unspecified)	?
111	CC(=O)OCC(=O)Nc1ccc(N=Nc2ccccc2)cc1	-3%
112	Nc1cc(S(=O)(=O)C(F)(F)F)ccc1C(=O)O	11%

# More compounds follow.
no.	Structure	VDR inhibitor
113	CCc1ccccc1NC(=O)CNC(=O)c1ccc(OCc2cn3ccccc3n2)cc1	14%
114	CCN1CCN(CCCNC(=O)CCC(=O)N2CC(C)Oc3ccc(C)cc32)CC1 (stereo unspecified)	12%
115	O=C(NCc1ccncc1)c1cc(S(=O)(=O)N2CCOCC2)c(Cl)cc1Cl	2%
116	O=[N+]([O-])c1ccc(N2CCN(c3ccccn3)CC2)c(Cl)c1	-1%
117	CCOc1ccc2nc(SCC(=O)c3cccs3)sc2c1	-1%
118	CC1CCN(C(=O)Cn2cnc3c(cnn3C(C)(C)C)c2=O)CC1	-15%
119	Cc1nc2ccccn2c1C(=O)NCCCN1CCOCC1	11%
120	COc1ccc(NC(=O)CN(C)S(=O)(=O)c2ccc3c(c2)OCCO3)c2ncccc12	11%
121	CC(C)=NNc1nc(-c2ccccc2)cs1	-4%
122	CSc1n[nH]c(NCc2ccccc2)n1	6%
123	O=c1c([N+](=O)[O-])cccn1Cc1ccccc1Cl	3%
124	COc1ccc2[nH]cc(C(=O)N3CCCCC3)c(=O)c2c1	-8%
125	Cc1cccc(/C=C/C(=O)c2ccc(NC3=NCCCS3)cc2)c1	20µM*
126	CC(=O)NCCNc1nc(-c2c(C)noc2C)nc2ccccc12	-19%
127	Cc1ccc(C(=O)N2CCCC(Nc3ccc(C(C)C)cc3)C2)cn1 (stereo unspecified)	-5%
128	CC(C)CN(C(=O)c1cccc(S(=O)(=O)N2CCN(Cc3ccccc3)CC2)c1)C1CCS(=O)(=O)C1 (stereo unspecified)	3%

# Single entries from the results shown.
# entry 28 in VDR inhibitor shows -9%
# entry 87 in VDR inhibitor shows 10%
# entry 68 in VDR inhibitor shows -12%
# entry 123 in VDR inhibitor shows 3%

# From PubChem BioAssay
